INS promoter inh: TRM-6 insulin promoter activity inhibition. TRM-6 cells (human fetal islet line), insulin promoter-eGFP reporter, imaging; reporter expression induced with tamoxifen. inhibition, % at 2 µM. 130,000 compounds, 0.9% hits;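 active = inhibition above the mean plus 3 SD, with well images judged a real hit on visual review, cut at about 60% in these data, passing the limit was not always enough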
GALR2 agonist: agonists of human galanin receptor 2 (GALR2) | O43603 | 140,000 compounds, 0.48% hits | AID 803 | activation, %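 (tested at 5 µM)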 | GALR2-expressing cells, agonist activation read-out;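 active = above mean plus 3 SD of all compounds, about 5% in these data, not always enough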;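 note: 0% = vehicle buffer wells and 100% = reference agonist at full effect; tested in CHO reporter cells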
RGS16-Gao: regulators of human RGS16-Galphao interaction | O15492+P09471 | 220,000 compounds, 0.38% hits | AID 1441 | binding response (% of control), % at 10 µM | bead-based flow cytometry RGS16-Galphao binding, fluorescence; actives lie on both sides;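 active = below 25% or above 175%, edge rows of some plates excepted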;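 note: Galphao activated by GDP with aluminum fluoride before binding; 100% = wells without compound and 0% = beads without RGS; some results beyond the cut were filed as inactive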
HSV replic up: HSV replication enhancement; HSV replication augmentation in cells, fold increase; maximum fold increase; 220,000 compounds, 0.005% hits; AID 1956;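 active = peak rise of 1.5-fold or more in the series; tested in PC3 cells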;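 note: first round at 10 µM; read as green reporter fluorescence; hits show the peak of a series up to 25 µM; 1 = signal of infected wells without compound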
PKD1 kinase inh: PKD1 (human) kinase inhibition. Q15139. PKD1 kinase fluorescence polarization assay. inhibition, %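 (about 10 µM by stock and volumes)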. 200,000 compounds, 0.056% hits. AID 797;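 active = inhibition of 50% or more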;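 note: controls were vehicle for no effect and a reference inhibitor for full effect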
Target sequence (Q15139 whole entry, looked up): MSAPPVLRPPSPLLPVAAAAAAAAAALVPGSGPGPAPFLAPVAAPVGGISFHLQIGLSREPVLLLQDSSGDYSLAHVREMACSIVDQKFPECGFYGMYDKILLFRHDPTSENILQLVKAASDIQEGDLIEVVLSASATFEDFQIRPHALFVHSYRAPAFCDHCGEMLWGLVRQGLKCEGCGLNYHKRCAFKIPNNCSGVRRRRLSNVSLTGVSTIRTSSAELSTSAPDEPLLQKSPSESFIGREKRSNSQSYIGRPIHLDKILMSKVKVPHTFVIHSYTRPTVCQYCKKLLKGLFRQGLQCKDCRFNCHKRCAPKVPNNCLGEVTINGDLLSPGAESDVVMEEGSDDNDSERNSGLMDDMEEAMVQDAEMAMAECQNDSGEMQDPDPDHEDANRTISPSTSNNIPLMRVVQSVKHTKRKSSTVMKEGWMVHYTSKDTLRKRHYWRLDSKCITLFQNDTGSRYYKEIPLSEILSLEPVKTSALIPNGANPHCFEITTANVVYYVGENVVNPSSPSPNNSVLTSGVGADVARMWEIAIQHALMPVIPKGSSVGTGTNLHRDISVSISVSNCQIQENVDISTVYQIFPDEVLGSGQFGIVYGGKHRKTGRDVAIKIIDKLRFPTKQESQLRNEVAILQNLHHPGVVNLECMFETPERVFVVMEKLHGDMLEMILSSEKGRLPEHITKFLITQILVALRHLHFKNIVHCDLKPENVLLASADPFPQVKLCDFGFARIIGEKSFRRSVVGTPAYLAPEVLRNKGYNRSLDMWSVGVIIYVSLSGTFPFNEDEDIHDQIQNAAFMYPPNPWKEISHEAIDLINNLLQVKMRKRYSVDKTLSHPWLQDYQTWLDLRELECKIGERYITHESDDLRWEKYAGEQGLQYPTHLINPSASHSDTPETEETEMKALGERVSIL
INS promoter inh cell count: recorded beside INS promoter inh, whose call it bears; normalized cell count, %; measured here: cell count, toxicity; reference of the scale not given here;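 cells exposed to compound for 48 h; stained nuclei by imaging scaled within each plate; lower means fewer cells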
HSV replic up primary fold: recorded beside HSV replic up, whose call it bears; fold increase; compound at 10 µM; measured here: primary screen fold increase 10 uM; tested in PC3 cells;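 GFP signal in the first replicate; 1 = infected wells without compound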
* hit, by the source's call; i = inactive; . = not tested or not shown.

SMILES | INS promoter inh | INS promoter inh cell count | GALR2 agonist | RGS16-Gao | HSV replic up | HSV replic up primary fold | PKD1 kinase inh
O=C(CCCCCn1c(=S)[nH]c2ccc(N3CCOCC3)cc2c1=O)NC1CCN(Cc2ccccc2)CC1 | 26.7 | 94.8 | . | 101.0 | i | 0.73 | -0.6
COc1ccc(SC[C@H](CC(C)C)N2CCN(C)CCC2=O)cc1 | . | . | . | 104.5 | i | 0.78 | .
Cc1cccc(NC(=O)c2cccc(Cn3cc(Br)c([N+](=O)[O-])n3)c2)c1C | -11.5 | 109.1 | -2.2 | 99.8 | i | 0.99 | -0.4
CC1C=CCC2C(=O)N(c3ccccc3OC(=O)c3ccco3)C(=O)C12 (configuration not stated) | 25.0 | 98.7 | . | 100.5 | i | 1.03 | 6.8
O=C(CCCc1c[nH]c2ccccc12)NCC1COc2ccccc2O1 (configuration not stated) | . | . | . | 101.3 | i | 1.01 | 0.5
C=CCn1c(COc2cccc3ccc(C)nc23)nnc1SCC(N)=O | 50.0 | 116.7 | 0.1 | 93.5 | i | 1.03 | -4.1
Cn1cccc1CC(=O)N/N=C/c1ccco1 | . | . | . | 96.3 | i | 1.09 | .
Cn1c(SCC(=O)N2c3ccccc3CCc3ccccc32)nnc1-c1cc2ccccc2cc1O | -27.8 | 56.7 | 1.3 | 58.7 | i | 1.08 | -6.7
CCOC(=O)CSc1nc(NC#N)nc(N(CC)CC)n1 | 2.6 | 131.0 | 0.8 | 104.1 | i | 0.77 | -4.1
CCOC(=O)c1c(C)nn(-c2ncccc2NC(=O)NC(C)C)c1C | . | . | . | 107.4 | i | 1.02 | .
O=C1Cc2ccccc2C(c2ccccc2)N1 (configuration not stated) | -100.0 | 134.6 | -0.8 | 103.0 | i | 0.71 | 9.8
Nc1cc(=O)[nH]c(SCc2nnnn2-c2ccc(Cl)cc2)n1 | . | . | -0.8 | 100.8 | i | 0.95 | -3.0
CCOc1ccc(C(=O)Nc2ccc3c(c2)OCO3)cc1OCC | -25.7 | 150.0 | -3.2 | 102.6 | i | 1.02 | 2.4
CCn1c(NCc2ccccc2NS(=O)(=O)c2ccc(C)cc2)nc2ccccc21 | 11.5 | 100.6 | -2.1 | 97.7 | i | 0.74 | -4.4
COc1cccc(-c2cc(C(=O)N3CC4(C)CC3CC(C)(C)C4)no2)c1 (configuration not stated) | . | . | 1.5 | 95.7 | i | 0.7 | -5.6
C=CCNc1nc(-c2cc3ccccc3o2)cs1 | . | . | -0.2 | 104.8 | i | 1.21 | -6.1
Cc1cc(=O)[nH]c(SC(C(=O)O)c2ccccc2)n1 (configuration not stated) | 11.7 | 57.7 | -1.3 | 54.6 | i | 1.01 | -11.1
COc1ccc(N/C=C/C(=O)c2sc(-c3ccccc3)nc2C)cc1 | -2.7 | 120.4 | -2.9 | 99.0 | i | 1 | -18.1
CCOC(=O)Nc1cccc(NC(=O)c2ccccc2F)c1 | . | . | . | 98.5 | i | 0.96 | -4.5
O=C(NCC1CCCO1)c1ccc2c(=O)n(-c3ccc(F)cc3)c(=S)[nH]c2c1 (configuration not stated) | . | . | . | 101.3 | i | 0.64 | -1.5
COc1ccc(C2C(C(=O)O)CC(=O)N2C2CCCCC2)cc1 (configuration not stated) | -200.0 | 111.5 | -1.4 | 99.9 | i | 0.89 | 8.1
CCO[C@@H]1OC(C(=O)N2CCN(Cc3ccccc3)CC2)=C[C@H](c2ccccc2)[C@H]1CCCO | . | . | . | 97.8 | i | 0.74 | -7.1
CCN(CC)C(=O)Oc1nnc(SC(C)C)n1-c1ccc(Cl)cc1 | . | . | . | 101.9 | i | 1.03 | .
O=C(CNc1c(Br)cc(Br)cc1Br)NN=C1CCCCC1 | -25.8 | 130.4 | -0.8 | 99.6 | i | 1.05 | -9.9
CCCNS(=O)(=O)c1ccc(CCC(=O)NCCc2ccc(OC)c(OC)c2)cc1 | . | . | . | 98.3 | i | 1.03 | -8.0
NC(=O)C1(NC(=O)[C@@H]2CC3(CC(c4cccc(NC(=O)[C@@H]5CCC(=O)N5)c4)=NO3)CN2C(=O)c2ccccc2)CC1 (some centres not stated) | . | . | -3.3 | 107.0 | i | 0.76 | 2.2
CCOC(=O)CC1Sc2ccccc2NC1=O (configuration not stated) | . | . | -1.0 | 107.2 | i | 1.03 | -3.9
CC(=O)c1ccc(NC(=O)c2noc3c2CCC3)cc1 | . | . | . | 94.8 | i | 1.14 | 4.6
Cc1ccc(NC(=O)CSc2nnc3n2CCCCC3)cc1 | . | . | 0.8 | 102.3 | i | 1.18 | 3.2
S=C(Nc1ccccc1Cl)N1CCOCC1 | . | . | -2.1 | 106.2 | i | 0.95 | -3.4

4 consecutive records already listed, for reference:
SMILES | INS promoter inh | INS promoter inh cell count | GALR2 agonist | RGS16-Gao | HSV replic up | HSV replic up primary fold | PKD1 kinase inh
O=C(CCCCCn1c(=S)[nH]c2ccc(N3CCOCC3)cc2c1=O)NC1CCN(Cc2ccccc2)CC1 | 26.7 | 94.8 | . | 101.0 | i | 0.73 | -0.6
COc1ccc(SC[C@H](CC(C)C)N2CCN(C)CCC2=O)cc1 | . | . | . | 104.5 | i | 0.78 | .
Cc1cccc(NC(=O)c2cccc(Cn3cc(Br)c([N+](=O)[O-])n3)c2)c1C | -11.5 | 109.1 | -2.2 | 99.8 | i | 0.99 | -0.4
CC1C=CCC2C(=O)N(c3ccccc3OC(=O)c3ccco3)C(=O)C12 (configuration not stated) | 25.0 | 98.7 | . | 100.5 | i | 1.03 | 6.8

(more compounds)
SMILES | INS promoter inh | INS promoter inh cell count | GALR2 agonist | RGS16-Gao | HSV replic up | HSV replic up primary fold | PKD1 kinase inh
CC(=O)Nc1ccc(S(=O)(=O)Nc2nc3ccccc3nc2-n2ccc(=NC(=O)c3ccc(F)cc3)cc2)cc1 | . | . | . | 100.5 | i | 0.94 | -3.0
Cc1ccsc1/C=N/NC(=O)C1CC(=O)N(c2ccc(F)cc2)C1 (configuration not stated) | . | . | . | 96.5 | i | 0.97 | .
CCN1CCN(C(CC(C)C)c2nnnn2CS(=O)(=O)c2ccc(C)cc2)CC1 (configuration not stated) | . | . | . | 112.6 | i | 0.8 | -2.1
Cc1cccc(C(=O)OCC(=O)NCC(C)C)c1O | . | . | . | 96.1 | i | 0.77 | -4.4
CN(C)c1ccc(CC2C(=O)Nc3ccccc32)cc1 (configuration not stated) | . | . | . | 103.6 | i | 0.98 | .
CCOc1cc(N2CCOCC2)c(OCC)cc1NC(=O)CN1C(=O)NC(C)(C2CC2)C1=O (configuration not stated) | . | . | . | 103.8 | i | 0.94 | -1.9
CCOC(=O)N1CCN(S(=O)(=O)c2ccc(C)c(C)c2)CC1 | 23.8 | 80.0 | -1.3 | 96.3 | i | 0.76 | -11.0
O=C(c1cc2ccccc2oc1=O)N1CCN(c2ncccn2)CC1 | 78.6* | 90.0* | -1.8 | 101.1 | i | 1.11 | -8.4
COCCCn1c(-c2ccco2)nc2ccccc2c1=O | . | . | -0.8 | 101.8 | i | 0.74 | -9.3
CC(/C=C/C=C/c1ccccc1)=N\NC(=O)c1cccnc1 | 50.0 | 74.2 | . | 105.9 | i | 0.83 | -0.5
O=c1c2ccccc2nc(N/N=C/c2c(O)ccc3ccccc23)n1O | 6.8 | 56.4 | -0.1 | 100.8 | . | . | -6.0
CC(=O)Oc1c(/C=C(\C#N)C(N)=O)[nH]c2ccccc12 | 15.4 | 152.1 | -0.8 | 93.4 | i | 0.92 | -6.4
NNC(=O)CNC(=O)c1cccc(Br)c1 | . | . | -2.6 | 105.4 | i | 0.987 | 3.2
Cc1ccc(S(=O)(=O)N2CCN(C(=O)CSc3nncs3)CC2)cc1 | . | . | . | 104.7 | i | 1.1 | .
CCC(CC)c1nnc(NC(=O)CN2C(=O)C3C4C=CC(C4)C3C2=O)s1 (configuration not stated) | 40.0 | 110.3 | -3.0 | 100.0 | i | 0.977 | -1.7
COCc1c(C)cc(C)c(/C=N/O)c1C | -13.0 | 114.7 | -1.9 | 104.9 | i | 0.78 | -14.4
CCOC(=O)c1c(-c2ccc(OC)cc2)csc1NC(=O)CCN1C(=O)c2ccccc2C1=O | 34.9 | 29.4 | 1.8 | 72.6 | i | 1.07 | 1.4
O=C(COc1ccc([N+](=O)[O-])cc1)N/N=C/c1ccccn1 | . | . | -2.1 | 97.1 | i | 1.07 | 0.6
COC(=O)c1ccc(CSc2nnc3c(Cl)cc(Cl)cn23)o1 | -57.6 | 110.0 | -3.6 | 92.3 | i | 0.98 | 3.6
[O-][n+]1onc2c3ccnnc3ccc21 | 30.8 | 85.5 | -0.7 | 105.7 | i | 0.93 | 0.9
O=P(O)(O)CP(=O)(O)O | 9.1 | 106.9 | -1.8 | 92.7 | i | 1.01 | -20.1
CO/N=C\CC(=O)Nc1ccc(F)cc1 | 22.2 | 96.4 | -2.5 | 104.3 | i | 0.55 | -15.7
CC1(OC(=O)C2CCCC2)C(=O)C=C2C=C(c3ccsc3)N(CCc3c[nH]c4ccccc34)C=C2C1=O (configuration not stated) | . | . | . | 94.7 | i | 0.85 | .
O=C(CN1CCOCC1)Nc1ccc(OCc2ccccc2)cc1 | 34.8 | 101.7 | -2.0 | 103.0 | i | 0.98 | -1.1
Nc1c(C(=O)Nc2ccc(Cl)cc2)oc2ccccc12 | . | . | -2.0 | 100.4 | i | 0.9 | -3.0
CN(C)CCC1c2ccc(Cl)cc2CCc2cccnc21 (configuration not stated) (tested in a mixture with another compound) | . | . | . | 98.3 | i | 0.93 | .
c1csc(-c2ncc3ccccn23)c1 | -45.5 | 111.3 | 0.4 | 98.7 | i | 0.93 | -5.9
CC1CCCN(C2=NC(=O)/C(=C/c3cn(-c4ccccc4)nc3-c3cccc(S(=O)(=O)N(C)C)c3)S2)C1 (configuration not stated) | . | . | -1.7 | 98.8 | i | 0.993 | -1.0
CN(C)S(=O)(=O)c1cccc(C(=O)Nc2ccccc2Cl)c1 | 58.1 | 36.2 | -4.0 | 80.9 | i | 1.09 | 4.3
CC(C)(C)NC(=O)CSc1nnc(-c2ccccn2)n1Cc1ccccc1 | . | . | . | 104.1 | i | 0.71 | .
CCOC(=O)C1C(=O)N(C(=O)c2ccc(OC)cc2)CC1c1ccccc1 (configuration not stated) | 50.0 | 113.6 | -2.2 | 222.0 | i | 1.03 | -3.8
CC(=O)Nc1sc2c(c1C(c1cccs1)N1CCOCC1)CCCC2 (configuration not stated) | . | . | -1.6 | 109.7 | i | 1.03 | -11.2
COc1cc(/C=N\NC(=O)CC(=O)NCCc2ccccc2)ccc1O | 35.7 | 129.6 | . | 111.7 | i | 1.07 | -3.4
CCOc1cc(N2CCOCC2)c(OCC)cc1NC(=O)COc1ncnc2ccccc12 | 8.3 | 85.8 | 0.2 | 99.2 | i | 0.92 | -2.6
O=C(Cn1cncn1)N/N=C/c1ccc(Cl)cc1 | 57.1 | 119.0 | -1.1 | 105.0 | i | 0.94 | -3.5
CC1CCCN(c2nc(-c3cccnc3)nc3scc(-c4ccccc4)c23)C1 (configuration not stated) | . | . | -0.3 | 101.8 | i | 0.81 | -2.2
Cc1[nH]nc2c1C(CC(C)C)C(C#N)=C(N)O2 (configuration not stated) | . | . | . | 98.5 | i | 0.97 | .
COc1ccc(N2C(N)=NC(N)=NC2(C)C)cc1 | -88.9 | 41.2 | 0.4 | 80.4 | . | . | 0.2
COc1ccc(-c2csc(Nc3ccccc3)n2)cc1 | . | . | . | 101.7 | i | 0.88 | -3.5
Cc1ccc(CNC(=O)c2ccccc2NS(C)(=O)=O)cc1 | -320.0 | 68.6 | -0.3 | 95.2 | i | 0.98 | 4.0
COc1ccc(C)cc1NC(=O)CCS(=O)(=O)c1ccc2c(c1)CCN2C(C)=O | . | . | . | 99.2 | i | 0.89 | -0.6
O=C(CSCc1nc2ccccc2[nH]1)N1CCN(c2ccc(F)cc2)CC1 | . | . | -3.2 | 98.0 | i | 1.06 | 6.5
CN(C)C(=S)Nn1c(-c2ccccc2)nc2ccccc2c1=O | 28.0 | 132.1 | 0.1 | 104.0 | i | 0.93 | -1.6
O=C(CSc1n[nH]c(-c2ccccc2)n1)Nc1ccc(N2CCOCC2)cc1 | -36.8 | 113.9 | . | 93.0 | i | 0.94 | -2.5
C=CCn1c(-c2csc(-c3ccc(OC)c(OC)c3)n2)n[nH]c1=S | . | . | . | 94.2 | i | 0.95 | -1.6
c1ccc(CCNc2nnnn2-c2ccccc2)cc1 | 11.8 | 68.8 | -2.6 | 103.3 | i | 1 | -19.0
Cc1noc(C)c1CSc1nnc2ccccn12 | -24.4 | 82.0 | -3.7 | 103.3 | i | 0.97 | -0.8
CN1c2ccccc2-c2nc3ccccc3n2C1c1ccccn1 (configuration not stated) | . | . | -0.9 | 115.9 | i | 0.887 | -1.0
Cc1c(Br)cccc1NC(=O)c1sccc1-n1cccc1 | -21.9 | 150.0 | -2.0 | 105.9 | . | . | -2.4

Source: PubChem BioAssay (several laboratories)
